# Source: PubChem BioAssay (several laboratories)
# Mtb H37Rv – M. tuberculosis H37Rv growth inhibitors, H37Rv strain (AID 1626). inhibition, % at 10 µM; hits with a dose series show IC50 in µM. hit rate 0.95% among 220,000. M. tuberculosis H37Rv growth inhibition; higher % means a stronger effect;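 active means confirmed in a dose series; inconclusive means inhibition above 80% but not taken into the dose series; inactive means below 80% or under 30% at every dose of the series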;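 further: bacteria incubated seven days before Alamar blue readout; 0% = bacteria only wells and 100% = bacteria with antibiotic wells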
# Arbovirus anti – blocks arbovirus infection; hit rate 0.37% among 200,000; inhibition, % at 10 µM; arbovirus infection cell-based antiviral screen;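 active means inhibition from about 30%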;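 further: bluetongue infection of BSR cells; cell survival read as ATP light after 72 h; 0% = infected wells without compound and 100% = uninfected wells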
# Mtb bLac sens – beta-lactam sensitization of Mtb H37Rv | M. tuberculosis H37Rv growth with meropenem, percent inhibition; hits of this screen are not shown here | inhibition, % at 25 µM | hit rate 0.27% among 330,000 | AID 434955;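 active means about 74% or more and at least 40 points above the plate without the antibiotic, then above 30% in a dose series; inconclusive means first-round hits that could not be retested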;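 further: growth measured after seven days incubation then overnight dye step; 0% = bacteria only wells and 100% = bacteria with antibiotic; twin plates without the antibiotic show which effects depend on it; some results filed as inactive read as strong as hits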
# YopH inh – YopH (Yersinia) phosphatase inhibition. fluorescence Ex485/Em525. inhibition, %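 (about 10 µM by stock and volumes)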. hit rate 0.16% among 140,000;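 active means inhibition of 50% or more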;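 further: controls were vehicle for no effect and minimum signal wells for full effect; inactives centre near -20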
# RecA intein inh – inhibitors of M. tuberculosis RecA intein splicing | hit rate 0.75% among 290,000 | AID 2221 | inhibition, %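 (about 9 µM by stock and volumes)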 | cell-free RecA intein splicing, fluorescence; in the data active means inhibition above about 30%; inconclusive means no clear call, values can overlap the other calls;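 further: 0% = vehicle wells and 100% = reference inhibitor control wells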
# Target sequence (P9WHJ3 whole entry, looked up): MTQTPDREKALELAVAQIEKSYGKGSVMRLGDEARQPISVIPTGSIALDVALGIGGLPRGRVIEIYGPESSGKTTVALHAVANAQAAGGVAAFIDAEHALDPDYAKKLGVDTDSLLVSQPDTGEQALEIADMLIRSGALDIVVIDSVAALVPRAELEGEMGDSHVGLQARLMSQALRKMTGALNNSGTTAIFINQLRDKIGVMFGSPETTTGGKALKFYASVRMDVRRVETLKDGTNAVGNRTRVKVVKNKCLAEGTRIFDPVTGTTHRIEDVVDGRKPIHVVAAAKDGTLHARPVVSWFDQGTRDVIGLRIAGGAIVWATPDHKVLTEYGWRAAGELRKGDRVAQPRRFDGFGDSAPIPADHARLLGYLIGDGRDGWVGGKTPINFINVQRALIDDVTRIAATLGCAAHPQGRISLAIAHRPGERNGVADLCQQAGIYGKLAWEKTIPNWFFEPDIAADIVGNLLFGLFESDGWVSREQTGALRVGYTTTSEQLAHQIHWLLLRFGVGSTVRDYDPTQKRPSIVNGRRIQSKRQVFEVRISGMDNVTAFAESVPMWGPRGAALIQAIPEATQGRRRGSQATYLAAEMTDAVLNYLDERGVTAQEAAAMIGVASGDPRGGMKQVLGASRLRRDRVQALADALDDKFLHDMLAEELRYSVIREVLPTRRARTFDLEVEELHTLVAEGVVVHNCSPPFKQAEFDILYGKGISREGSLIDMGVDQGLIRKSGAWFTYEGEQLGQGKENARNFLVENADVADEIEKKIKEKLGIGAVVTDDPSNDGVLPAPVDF
# Arbovirus anti repeat – further read-out of Arbovirus anti, marked with its call; inhibition, %; measured here: 10K subset replicate screen; many hits read low in the repeat;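 first of two repeat runs on a subset; 0% = infected and 100% = uninfected wells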
# Numbers without * were called inactive; ? = inconclusive; . = not tested or not shown; & = joins results of further samples.
# Sample of the layout, 4 compounds:
SMILES,Mtb H37Rv,Arbovirus anti,Mtb bLac sens,YopH inh,RecA intein inh,others
O=C(c1ccccc1)c1c2c(cc3sc4ccccc4[n+]13)-c1cccc3cccc-2c13,2.8µM*,-37,96,4,.,
CCc1ccc(NC(=O)c2noc3c2CCCCC3)cc1,.,3,-4,-18,-11,
O=C(NCCN1CCCCCC1)c1ccc(N2CCCC2=O)cc1,-2%,5,-12,-14,2.3,
Cc1ccc(C(=O)C(C)OC(=O)c2n[nH]c(=O)c3ccccc23)cc1 (centres undefined),-2%,5,-1,-3,2.8,

# All compounds of this part, from the first entry:
SMILES,Mtb H37Rv,Arbovirus anti,Mtb bLac sens,YopH inh,RecA intein inh,others
O=C(c1ccccc1)c1c2c(cc3sc4ccccc4[n+]13)-c1cccc3cccc-2c13,2.8µM*,-37,96,4,.,
CCc1ccc(NC(=O)c2noc3c2CCCCC3)cc1,.,3,-4,-18,-11,
O=C(NCCN1CCCCCC1)c1ccc(N2CCCC2=O)cc1,-2%,5,-12,-14,2.3,
Cc1ccc(C(=O)C(C)OC(=O)c2n[nH]c(=O)c3ccccc23)cc1 (centres undefined),-2%,5,-1,-3,2.8,
COC(=O)c1ccccc1NC(=O)c1sc(N)nc1C,-4%,-7,2,-59,.,
C/C(=N/Nc1ncc(Br)cn1)c1ccc([N+](=O)[O-])cc1,.,.,7,.,-2.1,
Cc1ccc(N2CC(NS(=O)(=O)c3cccs3)CC2=O)cc1 (centres undefined),.,.,-4,.,-0.7,
CCN(CC)CCN1C(=O)C(=O)/C(=C(/O)c2ccncc2)C1c1ccccc1F (centres undefined),-3%,0,4,-22,-0.6,
O=C(Nc1cc(-c2ccccc2)[nH]n1)c1ccc(Cl)cc1,16%&1%,.,6,.,0.9,
Cc1cc(OC(C)C(=O)NCCCN2CCOCC2)c2c(C)c(C)c(=O)oc2c1 (centres undefined),.,.,-10,.,-0.3,
CCOC(=O)c1ccc2c(c1)n(CC)c(/C=C/N(C)c1ccccc1)[n+]2CC,1%,-20,13,-31,1.1,
CSc1ccc(/C=N/N(C)S(=O)(=O)c2ccc(C)cc2)cc1,.,.,-2,.,13,
CCOC(=O)c1c(-c2ccc(OC)cc2)csc1NC(=O)CSc1ccccc1,-4%,-9,1,2,-0.7,
COc1cc(C(=O)OC2C[C@H]3CC[C@@H](C2)N3C)ccc1O (some centres undefined),.,.,-6,.,-2.0,
CCC(CO)Nc1ccc([N+](=O)[O-])c2cccnc12 (centres undefined),1%,1,11,-50,2.0,
CC(Sc1nc2ccccc2c(=O)n1CC1CCCO1)C(=O)Nc1ccc(S(N)(=O)=O)cc1 (centres undefined),.,.,-10,.,-0.7,
COc1ccc(CCNC(=S)N2CCN(S(=O)(=O)c3ccc(C)cc3)CC2)cc1,.,.,-2,.,-4.5,
O=C(NNC(=S)NCCc1ccccc1)c1ccc(Br)s1,1%,7,0,.,15,
CCOc1ccc2oc(C(=O)N3CCN(c4ccccc4OCC)CC3)c(C)c2c1,.,.,-7,.,6.8,
Cc1cccc(/C(N)=N/OC(=O)C23CC4CC(CC(C4)C2)C3)c1,6%,-1,-1,10,13,
CC(C)(C)c1ccc(C(=O)NCCC(=O)N2CCC3(CC2)NCCc2[nH]cnc23)cc1,.,.,7,.,-0.2,
O=C(CSc1nc2ccccc2c(=O)n1NC(=O)c1ccccc1)c1ccc(Cl)cc1,1%,-15,95,-10,11,
O=C(O)c1ccccc1-c1ccc(/C=C/c2cc(C(F)(F)F)[nH]c(=O)n2)o1,-2%,7,.,.,.,
O=C(NCc1cccc(Br)c1)C1CC2Cn3c(nc4ccccc43)C2N1c1ccccc1 (centres undefined),4%,.,0,.,-2.1,
CCOc1cc(CNCCSc2nnnn2C)cc(Br)c1OCc1ccccc1,15%,-5,55,-9,-0.6,
O=C(CN1CCN(c2ncccn2)CC1)N1CCCc2c1c(=O)oc1ccc(O)cc21,5%,1,10,48,.,
CCCC(=O)N/C(N)=N/c1nc(C)c2cc(C)ccc2n1,31%,.,72,.,-3.4,
CCN1CCc2c(sc(NC(=O)c3ccc(S(=O)(=O)N4CCCCCC4)cc3)c2C(=O)NC)C1,.,.,-3,.,0.1,
CN(C)/C=C(\C#N)C(=O)N/N=C/c1ccc(F)cc1,.,2,0,.,-1.7,
O=C(Nc1cccc(Cl)c1N1CCCCC1)c1ccc(N2CCOCC2)c([N+](=O)[O-])c1,3%,-8,2,-13,-2.4,

# Sorted by number of heavy atoms (rising): part of the list above.
SMILES,Mtb H37Rv,Arbovirus anti,Mtb bLac sens,YopH inh,RecA intein inh,others
CC(C)(C)c1ccc(C(=O)NCCC(=O)N2CCC3(CC2)NCCc2[nH]cnc23)cc1,.,.,7,.,-0.2,
O=C(NCc1cccc(Br)c1)C1CC2Cn3c(nc4ccccc43)C2N1c1ccccc1 (centres undefined),4%,.,0,.,-2.1,
CC(Sc1nc2ccccc2c(=O)n1CC1CCCO1)C(=O)Nc1ccc(S(N)(=O)=O)cc1 (centres undefined),.,.,-10,.,-0.7,

# Remaining list, next part:
SMILES,Mtb H37Rv,Arbovirus anti,Mtb bLac sens,YopH inh,RecA intein inh,others
COc1ccccc1N1CCN(C(=O)CCCCCn2c(=O)[nH]c3ccsc3c2=O)CC1,-1%,19,-3,.,-0.6,
CCCCN(CCCC)CCn1cnc2c([nH]c3ccc(OC)cc32)c1=O,0%,-5,6,-12,-0.9,Arbovirus anti repeat=-5
CCN(CC)S(=O)(=O)c1cc(NC(=O)[C@@H](NC(N)=O)C(C)C)ccc1C,7%,10,11,.,0.4,
CCOC(=O)c1cnc(SCC(=O)Nc2ccccc2C(=O)OC)nc1N,1%,9,84,-1,-1.6,
COc1ccccc1CNCc1cc(Br)ccc1OC,5%,11,4,.,-0.6,
CC(=O)OC(C(=O)Nc1ccccc1)C(C)S(=O)(=O)c1ccccc1 (centres undefined),-4%,13,-6,-14,7.0,
COc1ccc(/C=C2\SC(=S)N(c3cccnc3)C2=O)cc1,-3%,.,1,.,0.2,
Cc1c[n+](CC(=O)c2ccccc2)cs1,.,.,6,.,-1.5,
O=C(CCCC(=O)NCCc1ccccc1)NCCc1ccccc1,-1%,0,5,30,1.8,
Nc1ccc(C23CC4CC(CC(C4)C2)C3)cc1,9%,11,-2,.,4.4,
Cc1cc(C)c(C(N)=O)c(SCC(=O)c2ccc(Cl)cc2)n1,?,-11,46,-37,5.9,
CC(=O)N/N=C(\C)CC(=O)NC(C)(C)C,-2%,2,-5,.,-2.0,
Cn1c(O)c(N=NC(=O)CNC(=O)/C=C/c2ccccc2)c2ccccc21,.,.,-2,.,2.2,
CCCc1cc(=O)[nH]c(SCC(=O)c2c(N)n(C)c(=O)n(C)c2=O)n1,-2%,3,-3,-2,1.9,
C=CCNc1nc(N)c([N+](=O)[O-])c(NC2CCCCC2)n1,.,.,3,.,-1.8,
COc1cc2c(cc1OC)C(c1cccs1)CC(=O)N2 (centres undefined),-8%,-2,7,-26,1.1,
Cc1ccc(-c2nnn(CC(=O)N3CCC(C)CC3)n2)o1,-13%,-1,4,-18,-0.7,
Cc1cc(O)c(C(=O)/C=C/c2cccc([N+](=O)[O-])c2)c(=O)o1,38%,.,99,.,-0.8,
Cc1ncoc1C(=O)Nc1cccc(Cl)c1C,-3%,3,1,-31,0.2,
Cc1nn(C)c(Oc2ccccc2)c1[N+](=O)[O-],12%,0,4,1,-3.4,
Cc1ccc2c(c1)sc(-c1ccc(N(C)C)cc1)[n+]2C,.,.,8,.,-4.5,
Cc1cc(C(c2ccc(O)cc2)c2cc(C)c(O)cc2C)c(C)cc1O,.,.,16,.,33*,
Cc1cccn2c(=O)c(/C=N/O)c(N3CCCC3)nc12,-1%,-2,-6,-34,-1.4,
C=CCNC(=O)c1cccc(C(F)(F)F)c1,1%,0,-5,-24,1.1,
Cc1nn(C)cc1C(C(=O)NC1CCCCC1)N(C(=O)c1cnccn1)c1ccc(Oc2ccccc2)cc1 (centres undefined),5%,-17,6,-23,-3.8,
Nn1c(COc2cccc(Cl)c2)nc2ccccc2c1=O,12%,1,-7,-24,0.5,
Clc1ccc(Cn2nnc(-c3ccccc3)n2)cc1,-3%,-7,-1,-20,-3.1,
CCc1nc(C)cn1S(=O)(=O)c1cc(F)ccc1OC,-5%,-1,1,.,2.7,
CN(C)CCCNCCCNC(=O)c1ccncc1,2%,-3,9,-26,1.2,
CCOC(=O)c1sc(N/N=C/c2cccc(C)c2)nc1C,80%,2,90,-34,4.2,
COC(=O)C1CCN(C(=O)COC(=O)c2ccc3[nH]c4c(c3c2)CCCC4)CC1,.,.,-2,.,0.4,
COc1ccc(-c2cc(C(F)(F)F)nc(SCC(=O)Nc3ccc4c(c3)OCO4)n2)cc1,-6%,-5,3,-17,4.7,
C/C(N)=C(/C#N)C(=O)COC(=O)C1CCN(C(=O)c2ccc(Cl)cc2)CC1,4%,11,-3,.,1.8,
Cc1ccc(CN2CCN(/N=C/c3ccc(C(=O)O)cc3)CC2)c(C)c1,?,-10,-4,.,1.6,
CC(=O)Nc1nonc1-n1nnc(C(=O)NCc2ccccc2)c1C,-6%,1,-14,-28,-1.5,
CCOc1ccc(NC(=O)c2ccccn2)cc1,11%,-2,-3,-32,1.4,
COc1cc(NC(=O)NC(C)(C(F)(F)F)C(F)(F)F)cc(OC)c1OC,-4%,8,-6,-15,13,
CCOC(=O)C1(Cc2ccccc2)CCN(Cc2cn[nH]c2-c2ccccc2)CC1,8%,4,2,.,-0.1,
O=C1CS/C(=N/N=C2C3CC4CC(C3)CC2C4)N1,5%,-7,.,-27,-0.9,
COc1ccc(C)cc1NC(=O)NCCCCc1ccccc1,.,.,-5,.,-0.7,
CC(C)NC(=O)C(c1ccc(F)cc1)N(C(=O)CCC(=O)Nc1ccccn1)c1cccc(F)c1 (centres undefined),.,.,2,.,1.6,
O=C(N/N=C/c1cn(-c2cccs2)nc1-c1ccccc1)c1ccccc1Cl,12%,-7,68,-15,9.4,
COc1ccccc1N1CCN(C2CCCN(C(=O)c3ccoc3C)C2)CC1 (centres undefined),.,.,0,.,-1.5,
COCCCN(C(=O)CCOc1ccc(C(C)(C)C)cc1)c1c(N)n(Cc2ccccc2)c(=O)[nH]c1=O,.,.,3,.,-1.9,
CCCCN1CC(=O)N2[C@H](c3ccc(OC)cc3)[C@@H]3C(=O)N(CC)C(=O)[C@@H]3[C@]2(C)C1=O,.,.,-6,.,-0.9,
COCC(=O)N1CCCC(C(=O)c2ccc(-c3ccccc3)cc2)C1 (centres undefined),.,.,-4,.,-1.9,
Fc1ccc(CSc2nnc(-c3cccnc3)n2Cc2ccco2)cc1,-4%,1,-13,-41,1.1,Arbovirus anti repeat=4
c1ccc2c(c1)NCCS2,-3%,-13,-9,.,-0.9,
OC(COCc1cccs1)CN1CCCCCC1 (centres undefined),-2%,9,-10,-13,0.6,
COc1ccc(C(=O)N2CCN(c3ccc(C)cc3C)CC2)cc1OC,-1%,5,0,4,1.4,Arbovirus anti repeat=15
CCCCCc1ccc(OCCCC[n+]2ccc(C)cc2)c(CCCCC)c1,.,-34,100,.,6.1,
CC1(C)CC(=O)C2=C(C1)OC(N)=C(C#N)C2c1cc2c(cc1[N+](=O)[O-])OCO2 (centres undefined),1%,4,-4,-13,-26,
Cc1ccc(C)c(S(=O)(=O)NCc2ccncc2)c1,-3%,9,8,3,.,
O=C(c1cccc(N2C(=O)C3C4C=CC(C4)C3C2=O)c1)N1CCN(c2ccc(F)cc2)CC1 (centres undefined),.,.,-1,.,0.3,
COc1ccc(C)cc1NC(=O)C1CCN(S(=O)(=O)c2cccs2)CC1,.,.,5,.,1.6,
CCC(C)c1cc(S(=O)(=O)N2CCOCC2)ccc1OC (centres undefined),-2%,6,-8,-5,.,
CC(C)CCNC(=O)C(c1cccs1)N(CC1CCCO1)C(=O)Cn1nnc2ccccc21 (centres undefined),7%,-5,-6,-188,0.4,
COc1cc(C(=S)N2CCN(c3cccc(Cl)c3)CC2)ccc1O,-15%,-6,-2,.,0.1,
O=C(Nc1ccc2c(c1)OCO2)C1CC(=O)N(CCc2ccccc2)C1 (centres undefined),-8%,-9,-4,.,0.8,
CCN(CC)CCN1C(=O)c2oc3ccccc3c(=O)c2C1c1cccc(Br)c1 (centres undefined),0%,14,-13,-21,-7.3,

# The list continues:
SMILES,Mtb H37Rv,Arbovirus anti,Mtb bLac sens,YopH inh,RecA intein inh,others
Cn1c(=O)[nH]c(=O)c2c1nc(Br)n2CCSc1nnnn1-c1ccccc1,-17%,-2,-2,-61,-2.0,
Cc1cccc(C)c1NC(=O)N1CCCCCCC1,-2%,-2,-6,.,0.8,
CC(=O)Nc1ccc(S(=O)(=O)NC(CC(=O)NC2CCCCC2C)C(C)C)cc1 (centres undefined),2%,4,-2,-6,-0.9,
CC(OC(=O)c1ccccc1Nc1ccc(SC(F)F)cc1)C(N)=O (centres undefined),14%,-35,8,-3,8.5,
CCN(CCn1cccn1)C(=O)CC1C(=O)NCCN1Cc1ccc(OC)c(OC)c1 (centres undefined),13%,3,5,.,1.3,

# Some of the compounds tested; the hit share may differ from the screen's.
